Source: PubChem BioAssay
Mtb MbtI inh: blocks the Mycobacterium tuberculosis siderophore enzyme MbtI; purified MbtI enzyme, fluorescence intensity read-out; P9WFX0; inhibition, %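 (about 17 µg/mL by stock and volumes)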; 100,000 tested, 0.89% active;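 active = above 50% in both replicates, above 80% if mildly self-fluorescent; inactive = the rest, strongly fluorescent compounds included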;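 note: 0% = mean of negative and 100% = mean of positive controls; one replicate is shown; some compounds called inactive have numbers as strong as hits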
Target sequence (P9WFX0 whole entry, looked up): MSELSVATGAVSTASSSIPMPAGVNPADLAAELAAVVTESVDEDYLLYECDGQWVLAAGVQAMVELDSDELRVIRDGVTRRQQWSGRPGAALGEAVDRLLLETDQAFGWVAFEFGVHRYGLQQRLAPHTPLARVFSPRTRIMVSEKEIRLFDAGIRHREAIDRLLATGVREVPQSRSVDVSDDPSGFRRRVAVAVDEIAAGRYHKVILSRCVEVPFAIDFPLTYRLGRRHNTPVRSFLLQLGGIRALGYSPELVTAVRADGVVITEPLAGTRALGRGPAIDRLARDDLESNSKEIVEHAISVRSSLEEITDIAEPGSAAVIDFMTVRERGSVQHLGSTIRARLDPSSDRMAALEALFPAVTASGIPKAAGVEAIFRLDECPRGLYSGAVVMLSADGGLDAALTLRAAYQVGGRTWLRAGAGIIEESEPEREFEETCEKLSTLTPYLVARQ
Polio RdRp inh: poliovirus RNA polymerase inhibition. P03300. poliovirus polymerase elongation, fluorescence polarization; stronger effect = lower value. % elongation, % (compound at 16.7 µg/mL). 150,000 tested, 0.66% active; in the data active = % elongation below about 90%; note: some results filed as inactive read as strong as hits
Target sequence (P03300 1749-2209 limits assumed): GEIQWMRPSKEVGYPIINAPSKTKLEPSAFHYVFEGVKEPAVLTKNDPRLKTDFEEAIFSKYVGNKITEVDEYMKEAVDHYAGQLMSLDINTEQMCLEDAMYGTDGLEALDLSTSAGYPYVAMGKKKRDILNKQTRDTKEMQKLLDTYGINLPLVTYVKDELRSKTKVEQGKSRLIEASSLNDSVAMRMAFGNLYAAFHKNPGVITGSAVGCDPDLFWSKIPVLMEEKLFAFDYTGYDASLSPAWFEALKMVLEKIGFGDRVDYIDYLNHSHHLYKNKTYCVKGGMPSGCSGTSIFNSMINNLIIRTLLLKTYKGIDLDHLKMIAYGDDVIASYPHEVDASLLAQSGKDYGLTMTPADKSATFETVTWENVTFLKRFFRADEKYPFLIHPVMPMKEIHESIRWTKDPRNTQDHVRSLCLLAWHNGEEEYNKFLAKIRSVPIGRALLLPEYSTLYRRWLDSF
Mtb MenB inh: blocks the Mycobacterium tuberculosis MenB enzyme. P9WNP5. MenB enzyme assay, absorbance read-out; some hits fall short of the stated cut. inhibition, %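 (about 12 µg/mL by stock and volumes)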. 100,000 tested, 0.43% active;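 active = mean of two replicates above 30%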;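 note: 0% = no compound and 100% = wells with inactive enzyme; the first replicate is given; strong numbers were not always called active; inactives centre near -10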
Polio RdRp inh intensity: further read-out of Polio RdRp inh, marked with its call; % elongation; measured here: total intensity read-out; formula for this scale not given here;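 total fluorescence in place of polarization; lower means less elongation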
An asterisk follows results filed as active; . = not tested or not shown.

Every second line gives: Mtb MbtI inh	Polio RdRp inh	Polio RdRp inh intensity	Mtb MenB inh
CCCCN(C)S(=O)(=O)c1ccc(C)c(-c2nnc3c4ccccc4c(C)nn23)c1
    9	103	100	-6
N#CCC1C(=O)Nc2ccccc21 (stereo not given)
    0	104	104	9
CCCCNC(=O)c1cc(C)on1
    -9	104	103	0
COc1ccc2c(=O)c3c(oc2c1)C(=O)N(CCN1CCOCC1)C3c1ccccc1 (stereo not given)
    -6	101	107	-10
CCSc1nc2sc3c(c2c(=O)n1CC)CCCC3
    9	100	99	-4
CC(C)(C)NS(=O)(=O)c1ccc(N2CCCCS2(=O)=O)cc1
    -3	100	101	-34
COC(=O)c1c(O)cc(=O)[nH]c1N
    -4	99	101	-24
Cn1c2c(c(=O)n(C)c1=O)C(=O)CN2c1ccccc1
    .	106	101	-1
Cc1ccc(S(=O)(=O)C2(C(=O)N3CCN(c4cccc(Cl)c4)CC3)CC2)cc1
    1	99	103	2
O=C1COc2ccc(C(=O)CSC(=S)N3CCCC3)cc2N1
    89	81*	68*	-49

Compounds shown so far with two or more sulfur atoms (3):
Every second line gives: Mtb MbtI inh	Polio RdRp inh	Polio RdRp inh intensity	Mtb MenB inh
CCSc1nc2sc3c(c2c(=O)n1CC)CCCC3
    9	100	99	-4
CC(C)(C)NS(=O)(=O)c1ccc(N2CCCCS2(=O)=O)cc1
    -3	100	101	-34
O=C1COc2ccc(C(=O)CSC(=S)N3CCCC3)cc2N1
    89	81*	68*	-49

Other results:
Every second line gives: Mtb MbtI inh	Polio RdRp inh	Polio RdRp inh intensity	Mtb MenB inh
Clc1ccc(-c2nc(N3CCCCC3)c3ccccc3n2)cc1
    5	101	104	9
Cc1cc(C(=O)Nc2cccc(C(F)(F)F)c2)n[nH]1
    0	100	102	-12
C=Cc1ccc2c(c1)N(C)C(=C)S2
    62*	104	107	.
CCc1ccc2c(CC(=O)O)coc2c1
    3	94	96	9
CC12CCC(CC1=NNC(=O)CSc1nc3ccccc3o1)C2(C)C (stereo not given)
    -2	102	110	10
COc1ccc(/C=C2\C(=N)N3N=C(N4CCOCC4)SC3=NC2=O)cc1
    -2	103	101	-55
Cc1[nH]c2ccccc2c1-c1nc2ccccc2[nH]c1=O
    -12	106	115	-168
COc1cc(OC)c(NS(=O)(=O)c2cc(-c3cc(C)no3)ccc2C)cc1Cl
    -3	100	102	-4
CN1CCN(S(=O)(=O)c2ccc(NC(=O)c3ccc(Br)s3)cc2)CC1
    -13	95	106	4
N#Cc1c(C(F)(F)F)cc(-c2cccs2)oc1=S
    .	105	108	-12

Continued:
Every second line gives: Mtb MbtI inh	Polio RdRp inh	Polio RdRp inh intensity	Mtb MenB inh
CCOc1ccc2nc(NC(=O)c3cccn(OCc4ccccc4)c3=O)sc2c1
    -1	101	103	-28
CN(C(=O)N1CCN(c2ccccn2)CC1)c1ccccc1
    -171	101	102	-16
Cn1c(=N)sc2ccccc21
    8	103	109	-15
Cc1ccc(CCNC(=O)c2cc(C)[nH]n2)cc1
    -19	104	102	-18
O=S(=O)(Nc1ccccc1C(F)(F)F)c1ccc2c(c1)CCO2
    -6	104	111	8
O=C(NC1(C(F)(F)F)Oc2ccccc2O1)Sc1ccccc1
    23	103	108	-11
NC(=S)c1cccc(Br)c1
    26	102	106	-9
CCN1C(=O)/C(=c2\s/c(=C3\Sc4ccc(OC)cc4N3C)c(=O)n2Cc2ccccc2)N(C)C1=S
    -12	104	104	-20
Cc1ccc(NC(=O)c2ccc(-c3ccccc3)cc2)nc1
    -7	105	105	-55
CCCCN1C(=O)C(O)(CC(=O)c2ccc3c(c2)OCCO3)c2ccccc21 (stereo not given)
    -2	100	104	7

Single values from the list:
Polio RdRp inh, CN(C(=O)N1CCN(c2ccccn2)CC1)c1ccccc1 = 101
Mtb MbtI inh, Cc1ccc(NC(=O)c2ccc(-c3ccccc3)cc2)nc1 = -7
Polio RdRp inh intensity, O=S(=O)(Nc1ccccc1C(F)(F)F)c1ccc2c(c1)CCO2 = 111
Mtb MbtI inh, CCN1C(=O)/C(=c2\s/c(=C3\Sc4ccc(OC)cc4N3C)c(=O)n2Cc2ccccc2)N(C)C1=S = -12
Polio RdRp inh, CCOc1ccc2nc(NC(=O)c3cccn(OCc4ccccc4)c3=O)sc2c1 = 101
Mtb MbtI inh, O=C(NC1(C(F)(F)F)Oc2ccccc2O1)Sc1ccccc1 = 23

The list goes on.
Every second line gives: Mtb MbtI inh	Polio RdRp inh	Polio RdRp inh intensity	Mtb MenB inh
CCOc1ccc(CN(C)CC(O)COCC2CCCO2)cc1 (stereo not given)
    -30	104	109	-9
CN(c1ccc(Cl)cc1)c1nc(O)c(C2=c3cc(F)ccc3=NC2=O)s1
    -15	104	103	-32
Cc1ccnc(SC(C)C(=O)O)n1 (stereo not given)
    6	101	101	27
COc1ccc(NC2c3ccccc3C(=O)N2c2ccc(Cl)cc2)cc1 (stereo not given)
    -9	103	106	-10
O=S(=O)(Cc1cccc(C(F)(F)F)c1)NCc1csc(-c2cccs2)n1
    -1	105	107	-16
CC(C)N(C(=O)COn1nnc2ccccc21)c1ccccc1
    -10	102	102	-13
Cc1cccc(C)c1OCC(=O)N(CC(N)=O)C(C)C
    -8	103	103	2
CC(C)Cn1c(N)c(C(=O)NCc2cccs2)c2nc3ccccc3nc21
    -9	.	.	-14
O=C(Cc1ccc(Br)cc1)Nc1ccc(-c2nnc(-c3ccccc3)o2)cc1
    -31	98	101	-4
O=C(NCC1CCCO1)c1cccc(Nc2nc3ccccc3n3cnnc23)c1 (stereo not given)
    6	100	103	-22

Single records, from the list above. Screens in order: Mtb MbtI inh | Polio RdRp inh | Polio RdRp inh intensity | Mtb MenB inh
C=Cc1ccc2c(c1)N(C)C(=C)S2 reads 62* | 104 | 107 | .
CN(C(=O)N1CCN(c2ccccn2)CC1)c1ccccc1 reads -171 | 101 | 102 | -16

(continued)
Every second line gives: Mtb MbtI inh	Polio RdRp inh	Polio RdRp inh intensity	Mtb MenB inh
Cc1cc(C(=O)Nc2sc(C)c(C)c2C(=O)NCc2cccnc2)no1
    10	100	106	8
O=C(CN(C(=O)c1cc2c(s1)CCC2)C1CCCC1)NCc1cccs1
    -5	104	103	-3
CCn1c(=O)c2cc(C(=O)NCCCN3CCCCCC3)sc2c2ccccc21
    101	102	97	5
CC1CCCCN1C(=O)C1CCN(S(=O)(=O)c2ccc(-n3cnnn3)cc2)CC1 (stereo not given)
    -1	100	100	13
C=CCN1C(=O)c2ccc(C(=O)OCc3cn4ccccc4n3)cc2C1=O
    -11	103	104	-12
CCOc1ccccc1-c1nnc(CS(=O)(=O)c2ccccc2)o1
    23	99	103	-3
CC(=O)N(CCc1ccc(C)[n+]([O-])c1)c1ccccc1
    .	108	115	-4
Cc1nnc(SCC(=O)NC(=O)C2COc3ccccc3O2)n1Cc1ccccc1 (stereo not given)
    -12	104	107	-6
CCCOc1ccc(Cl)cc1C(=O)O
    -5	104	106	-8
O=C(NCc1cccs1)c1ccc2c(c1)N(Cc1ccccc1)C(=O)CS2
    -7	101	107	-6

Next part.
Every second line gives: Mtb MbtI inh	Polio RdRp inh	Polio RdRp inh intensity	Mtb MenB inh
Cc1ccc2ncc(C(=O)NC(C)(C)C)c(=O)n2c1
    119	99	103	-11
Cc1sc(NC(=O)c2ccccc2F)c(C(=O)O)c1C
    -6	101	101	-10
O=C(CSc1nc2sc3c(c2c(=O)[nH]1)CCCC3)Nc1nc2c(s1)CCCC2
    0	102	101	-2
CCCN(CC(=O)Nc1ccccc1C)C(=S)NC
    -3	102	106	15
CCN(Cc1ccccc1)C(=O)COC
    1	97	102	6
O=C(OCN1C(=O)c2ccccc2C1=O)C1CCN(S(=O)(=O)c2ccc(Cl)cc2)CC1
    -7	106	106	-13
COc1ccc(N2CCN(c3ccc(OC)cc3)C2c2cc(OC)ccc2O)cc1
    -4	105	102	-25
N#CCCCn1c(-c2ccc(Cl)cc2)noc1=O
    -3	104	100	-29
CCc1ccc(-c2nc(SCC(=O)N3CCCC3=O)n[nH]2)cc1
    4	110	99	-31
CCOc1ccc2[nH]c(=O)c(CN(CCc3ccccc3)C(=O)N(C)C)cc2c1
    17	100	103	-33

The results go on:
Every second line gives: Mtb MbtI inh	Polio RdRp inh	Polio RdRp inh intensity	Mtb MenB inh
CC(C)Cn1c(=S)[nH]c2ccccc2c1=O
    .	92	95	-3
COC(=O)c1c[nH]n2c(=O)c(C(C)C)c(C)nc12
    20	102	103	5
CC(C)(C)c1cc(C(=O)O)n[nH]1
    -1	102	108	-21
COC(=O)c1cc(NC(=O)NCc2noc3ccccc23)cc(C(=O)OC)c1
    94	101	103	-12
Cc1ccc(NC(=O)c2ccc(S(=O)(=O)N3CC(C)CC(C)C3)cc2)c(C(=O)c2ccccc2)c1 (stereo not given)
    11	103	94	-22
CN1c2ccccc2Oc2nnc(N3CCN(C(=O)c4ccco4)CC3)cc21
    106	103	101	-22
COc1cc(CCC(=O)NC2CCCCC2)cc(OC)c1OC
    -6	101	98	-17
CC1SC(C)C(=O)N(CC(=O)Nc2ccccc2F)C1=O (stereo not given)
    -7	106	100	-28
COCCN1C(=O)c2ccccc2C(C(=O)N2CCCC2)C1c1cn(C)c2ccccc12 (stereo not given)
    -4	103	103	-21
O=C(O)c1cc2ccccc2n1-c1ccccc1
    -13	103	102	4

Additional results follow.
Every second line gives: Mtb MbtI inh	Polio RdRp inh	Polio RdRp inh intensity	Mtb MenB inh
Cc1cc2c(cc1S(=O)(=O)NCCC1=CCCCC1)n(C)c(=O)c(=O)n2C
    4	100	102	11
Cc1noc(C)c1CSc1ncccc1C(=O)NCCc1c[nH]c2ccccc12
    22	93	115	-15
Cc1cc(C(=O)COC(=O)c2ccccc2S(C)=O)c(C)n1CCC1=CCCCC1 (stereo not given)
    -1	100	106	-4
O=C(c1ccc(CS(=O)(=O)c2ccc(Br)cc2)o1)N1CCN(c2ccc(Cl)cc2)CC1
    5	101	95	-26
Cc1ccc(OCc2nc(C#N)c(NCCN(C)C)o2)cc1
    -5	106	104	-15
COc1ccc(NC(=O)C2CCC(Cn3c(=S)[nH]c4ccsc4c3=O)CC2)cc1 (stereo not given)
    -3	100	102	-41
NC(=S)N/N=C1/C2C3CC4C1C1C2CC3C41 (stereo not given)
    58	92	98	-30
CN1CCc2c(sc3c2C(=O)NC(c2cccc(O)c2)N3)C1 (stereo not given)
    6	101	101	-4
Cc1cc(=O)[nH]c(SCC(=O)NCCCc2ccccc2)n1
    -5	97	95	-18
CN(C)C(CNC(=O)c1ccc(-c2ccccc2)cc1)c1ccco1 (stereo not given)
    5	96	101	0

Next section:
Every second line gives: Mtb MbtI inh	Polio RdRp inh	Polio RdRp inh intensity	Mtb MenB inh
O=c1[nH]c(=S)c2c(n1N1CCOCC1)CCC2
    .	105	109	-4
O=C(c1ccc(-n2cnnn2)cc1)N1CCN(C(c2ccccc2)c2ccccc2)CC1
    -7	107	102	-28
COc1ccc(-c2nc(SCC(=O)N3CCCC3)n[nH]2)cc1
    -6	103	103	5
OC(CN1CCC(c2nc3ccccc3o2)CC1)c1ccccc1 (stereo not given)
    199	105	109	-11
Cc1cc(=O)oc2cc(OCC(O)CN3CCc4ccccc4C3)ccc12 (stereo not given)
    106	97	103	-7
N#CCCNC12CC3CC(CC(C3)C1)C2
    13	102	101	-19
CC(C)NC(=O)c1cc(Br)c(Br)s1
    -1	104	106	-2
O=C(O)CCCSc1ccc(Cl)cc1
    -2	100	106	.
COc1ccc(OC)c(CN2C(=O)CCC2(C)C(=O)NCCc2ccc(OC)c(OC)c2)c1 (stereo not given)
    5	101	105	10
CN=c1scc(C)n1/N=C(\C)c1cccc(F)c1
    15	98	104	-17

Continued.
Every second line gives: Mtb MbtI inh	Polio RdRp inh	Polio RdRp inh intensity	Mtb MenB inh
C[N+]1(CCOC(=O)C2(c3ccccc3)CCCC2)CCCCC1
    8	103	107	-9
COC(=O)c1ccc(-c2ccco2)n1CC(=O)Nc1cccc(C)c1C
    3	101	103	-1
Cc1ccc(NC(=O)c2ccc3nc[nH]c3c2)cc1C
    4	103	105	4
CC1(C)NC(=O)N(CCC(=O)N2CCN(S(=O)(=O)c3cccs3)CC2)C1=O
    0	106	108	-2
CCOC(=O)C1=C(C)NC(C)=C(C(=O)OC)C1c1cccc(Cl)c1Cl (stereo not given)
    20	102	101	2
COc1ccc(S(=O)Cc2ccc(C(=O)NCCc3ccc(SC)cc3)o2)cc1 (stereo not given)
    17	103	97	0
Cc1ccc(-c2nc(N3CCN(c4ccc(F)cc4)CC3)c3ccccc3n2)cc1
    -9	104	102	-16
Nc1nc(=S)nc(Cc2ccc3c(c2)CCC3)[nH]1
    62	93	96	-43
COc1ccc(S(=O)(=O)c2c(C(=O)c3ccccc3)cnc3cc(OC)c(OC)cc23)cc1
    20	102	99	9
N#Cc1c(-c2ccccc2)nc2n1CCS2
    -13	102	114	-8
COc1ccccc1CCNC(=O)c1ccoc1C
    16	98	102	0
O=C(CCNS(=O)(=O)c1ccc(Br)cc1)NC1CCCC1
    5	100	95	-27
